High-throughput results deposited in PubChem BioAssay by National Center for Advancing Translational Sciences (NCATS).
LASV entry inh = Lassa virus entry inhibition. Lassa virus pseudotype entry inhibition, cell reporter; control for the full effect not named in the record. Potency, µM (highest dose often 37.9 µM), for inactives: at the highest dose activity change, negative = inhibition, most hits filed as inhibitors. 1.2% of 300,000 active; active means well fitted inhibition curve with a large enough effect; inconclusive means small, poorly fitted or top-dose-only effect, or effect the other way; inactive means flat fitted curve, though single readings scatter; tested in HEK293 cells; also: % is scaled to controls: 0 for no effect and ±100 for the full control effect; nearly all actives have a fitted effect of over 50% in size; luciferase read-out
RE007 growth inh = less growth of the S. pombe RE007 Vpr strain; AID 651644; S. pombe RE007 Vpr strain, BacTiter-Glo ATP luminescence, 24 h; control for the full effect not named in the record; Potency, µM (series often up to 92.2 µM), inactives show at the highest dose activity change, negative = less growth; 0.21% of 360,000 active; active = well fitted falling curve with a large enough effect; inconclusive = small, poorly fitted or top-dose-only effect; inactive = no such curve, though single readings can be large or run the other way;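 also: % is scaled to controls: 0 for no effect and ±100 for the full control effect; nearly all actives have a fitted effect of over 50% in size; the assay follows cell death caused by Vpr and the record does not say whether a fall means rescue or toxicity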
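Fission yeast RE007 carrying one integrated HIV-1 vpr copy, seeded at OD 0.01 in PMG+AL medium with 23 nL pinned compound. Grown 24 h at 30 degrees; viability read by BacTiter-Glo luminescence after 5 min.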
Marburg entry inh = blocks Marburg virus binding to or entry into cells; Marburg virus pseudotyped entry inhibition, cell reporter; control for the full effect not named in the record; about a third of the inactives were read at about 46 µM; Potency, µM (top dose mostly 37.8 µM), inactives show at the highest dose activity change, negative = inhibition, usual class: inhibitors; 1.8% of 300,000 active; active = well fitted inhibition curve with a large enough effect; inconclusive = small, poorly fitted or top-dose-only effect, or effect the other way; inactive = flat fitted curve, though single readings scatter; tested in HEK293 cells; about a fifth of its hits are not listed in these tables; also: % is scaled to controls: 0 for no effect and ±100 for the full control effect; luciferase read-out
StopGo reporter = FMDV 2A StopGo reporter, luciferase signal. human cells with a luciferase reporter of 2A StopGo recoding; control for the full effect not named in the record. Potency, µM (highest dose often 57.9 µM), for inactives: top-dose signal change, negative = less light. 1.2% of 410,000 active; active = well fitted falling curve with a large enough effect; inconclusive = small, poorly fitted or top-dose-only effect; inactive = no such curve, though single readings can be large or run the other way; tested in HEK293T cells; also: % is scaled to controls: 0 for no effect and ±100 for the full control effect; nearly all actives have a fitted effect of over 45% in size; luciferase light after 4 h
NS1 inh = influenza NS1 inhibition. S. cerevisiae slowed by influenza A NS1, growth recovery by OD600. Potency, µM (top dose mostly 46.1 µM), without a hit: at the highest dose activity, positive = more growth. 0.4% of 270,000 active; active means well fitted rising curve with a large enough effect; inconclusive means small, poorly fitted or top-dose-only effect; inactive means no such curve, though single readings can be large or run the other way; also: nearly all actives have a fitted effect of over 50% in size
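A cell-based growth assay was used: compounds that relieve NS1-induced slow growth of budding yeast raise OD600. Assay medium was yeast nitrogen base with ammonium sulphate and -URA supplement, pH 6.0, with 2% galactose.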
Cruzain inh Det = inhibitors of Trypanosoma cruzi cruzain with detergent | purified cruzain, Z-FR-AMC fluorescence, 0.01% Triton | Potency, µM, without a hit: max response, negative = inhibition, actives largely listed as inhibitors | 0.43% of 200,000 active | AID 1478;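 also: plate controls were neutral wells for no effect and buffer without enzyme for full effect; nearly all actives have a fitted effect of over 40% in size; top concentration of the series not given in the record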
Target sequence (P25779 123-467 limits assumed): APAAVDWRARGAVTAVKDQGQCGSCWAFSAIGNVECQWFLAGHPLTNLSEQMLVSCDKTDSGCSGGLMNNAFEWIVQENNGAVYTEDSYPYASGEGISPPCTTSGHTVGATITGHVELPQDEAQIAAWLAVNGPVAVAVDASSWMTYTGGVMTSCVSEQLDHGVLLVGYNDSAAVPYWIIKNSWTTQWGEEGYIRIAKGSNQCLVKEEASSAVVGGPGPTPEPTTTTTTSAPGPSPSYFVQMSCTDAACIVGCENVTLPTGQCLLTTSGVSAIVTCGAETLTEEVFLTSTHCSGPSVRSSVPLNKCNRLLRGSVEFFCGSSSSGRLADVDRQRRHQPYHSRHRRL
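Compounds were screened in titration against cruzain (1.5 nM) with 0.01% Triton X-100 to counter colloidal aggregation. Activity was the AMC fluorescence increase over 60 s after adding 2 uM Z-FR-AMC at pH 5.5.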
Cruzain noTriton = blocks cruzain activity in detergent-free assay. P25779. purified cruzain, Z-FR-AMC fluorescence, no detergent. Potency, µM, inactives show max response, negative = inhibition, actives largely listed as inhibitors. 2.3% of 200,000 active;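 also: plate controls were enzyme without inhibitor for no effect and buffer without enzyme for full effect; nearly all actives have a fitted effect of over 40% in size; top concentration of the series not given in the record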
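Purified cruzain at 1.5 nM, pre-incubated 15 min with compound at room temperature in 100 mM sodium acetate pH 5.5, 5 mM DTT, 0.00005% Triton X-100. Reaction started with 2 uM Z-FR-AMC; AMC fluorescence increase over 60 s gives rate.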
SARS PLpro yeast = blocks SARS-CoV papain-like protease in a yeast assay; Potency, µM (highest dose often 32.9 µM), for inactives: at the top dose activity, positive = growth rescue; 0.19% of 330,000 active; S. cerevisiae expressing SARS-CoV PLpro, growth rescue; control for the full effect not named in the record; active means well fitted rising curve with a large enough effect; inconclusive means small, poorly fitted or top-dose-only effect; inactive means no such curve, though single readings can be large or run the other way; also: 0% is about no effect; nearly all actives have a fitted effect of over 55% in size; growth read by luminescence after 48 h
Active calls of the source: *; ? = inconclusive; nt = not tested or not shown; & = joins results of further samples; [ ] = dose if it differs, or a comment. Unless noted, calls follow the shape of the dose curve; as a rule, active = well fitted curve in the direction sought with a large enough effect; inconclusive = small, poorly fitted or top-dose-only effect, or another doubt; inactive = no such curve, though single readings can be large; an effect the other way counts as inactive or inconclusive. Potency is read from the fitted curve at half-maximal effect.

SMILES	LASV entry inh	RE007 growth inh	Marburg entry inh	StopGo reporter	NS1 inh	Cruzain inh Det	Cruzain noTriton	SARS PLpro yeast
CC1(C)SC2c3ccccc3C(=O)N2[C@@H]1C(=O)NCCCN1CCOCC1 (stereo partly specified)	1%	-5%	3%	-2%	2%	7.8%	-1%	0%
Cc1ccc(S(=O)(=O)c2cn(CC(=O)Nc3ccc(C)c(Cl)c3)c3ccc(C)cc3c2=O)cc1	15%[46.1 µM]	nt	2%[46.1 µM]	20%	nt	-3.2%	?	nt
Nc1ccccc1SCc1c(Cl)cccc1Cl	28%	-4%	10%[46.1 µM]	-19%	-3%	nt	nt	0%
CCOC(=O)c1c(Oc2ccc(C(=O)OC)cc2)nnc(-c2ccccc2)c1-c1ccccc1	?	nt	?	?	nt	-6.8%	-21%	nt
O=S(=O)(NC(=NCCc1ccc(Cl)cc1)c1ccccc1Cl)c1cccs1	?	-10%	?	41%[activator]	-1%	nt	nt	-2%
Cc1c(OCC(=O)NC2CC(C)(C)NC(C)(C)C2)ccc2c3c(c(=O)oc12)CCC3	nt	-12%	nt	-37%	-11%	nt	nt	-1%
CCN(C(=O)C1CCC(CNS(=O)(=O)c2cccc3nsnc23)CC1)c1ccccc1 (stereo unspecified)	?	nt	-5%[46.1 µM]	-23%	nt	-0.3%	0%	nt
Cc1ccc(NC(=S)NCCc2c[nH]c3ccccc23)cc1	-21%	13%	9%	39%[activator]	-39%	-0.5%	-5%	-3%
COc1ccc(C)cc1NC(=O)c1ccc2c(c1)CCN2S(=O)(=O)c1ccc(Cl)cc1	-18%[46.1 µM]	nt	?	-23%	nt	-0.5%	17%	nt
CC1=NC(Nc2nc(C)c3ccccc3n2)=NC(C)(C)C1	15%	-5%	?	-26%	-6%	20µM*	16µM*	-5%
COCCCN(Cc1ccco1)C(=O)CSc1nc2ncccc2[nH]1	nt	3%	nt	-2%	9%	nt	nt	-1%
O=C(CCS(=O)(=O)c1cc2c(cc1Cl)NC(=O)CO2)NCc1ccccc1Cl	-5%[46.1 µM]	nt	nt	-22%	nt	-6.6%	?	nt
N#C/C(=C/c1ccc(-c2ccc(S(N)(=O)=O)cc2)o1)c1nc2ccccc2s1	?	4%	?	-9%	15%	-4.1%	-26%	-3%
Nc1ncc(S(=O)(=O)c2ccc([N+](=O)[O-])cc2)s1	0%[46.1 µM]	6%	-15%[46.1 µM]	-12%	nt	nt	nt	nt
COCc1nc(-c2ccc(-c3ccc(OC)cc3)nc2OC)no1	10%	-4%	?	37%[activator]	-31%	-24%	17%	-24%
CN1C(=O)Cc2cc(S(=O)(=O)NCCc3ccc(Cl)cc3)ccc21	20%&6%[46.1 µM]	-3%	19%&19%[46.1 µM]	2%&21%	20%	nt	nt	0%
Cc1ccc(-n2c(C)cc(/C=N/NC(=O)c3ccc(CN4CCOCC4)cc3)c2C)cc1	-29%	-6%	-18%	?	-12%	-5.6%	-9%	-4%
COc1ccc(-c2cn(-c3ccccc3)c3[n+]2CCS3)cc1	?	-12%&-10%	?	?	-1%&-3%	-1.0%&-2.5%	9%&-13%	-14%&5%
COCCOC(=O)c1nccnc1C(=O)Nc1ccc(S(=O)(=O)N2CCOCC2)cc1	nt	1%	nt	-23%	-1%	nt	nt	0%
Cc1ccccc1CNC(=O)C1CCC(=O)N(CC2CCCCC2)C1 (stereo unspecified)	1%	0%	0%	-4%	-4%	nt	nt	2%
C(=N\n1cnnc1)/c1ccc(N2CCOCC2)s1	-8%	4%	0%	-9%	7%	-3.2%	4%	-4%
O=C(CN1C(=O)c2ccccc2C1=O)N1CCN(c2ccccc2)CC1	3%	-10%	0%	-8%	2%	4.5%	-1%	6%
CC1Cc2ccccc2N1C1=CC(=O)CCC1 (stereo unspecified)	-1%	-1%	?	-19%	-4%	nt	nt	5%
CCC(C)c1ccccc1NC(=O)Cc1coc2cc3c(cc12)CCC3 (stereo unspecified)	-23%	1%	?	-9%	-1%	-6.3%	17%	-8%
CCOC(=O)CSc1ccccn1	nt	-11%	nt	2%	0%	nt	nt	0%
COc1ccc(C(=O)NNC(=O)c2ccc(F)c(S(=O)(=O)N3CCOCC3)c2)cc1	5%	10%	-6%	-6%	nt	nt	nt	4%
CCOC(=O)C1CCN(S(=O)(=O)c2ccc(Cl)cc2)CC1	-21%[46.1 µM]	4%	6%[46.1 µM]	-11%	-6%	nt	nt	0%
Cc1ccc(S(=O)(=O)c2nnn3c2nc(N2CCOCC2)c2ccccc23)cc1C	-27%[46.1 µM]	3%	5%[46.1 µM]	23%	10%	nt	nt	-2%
O=C(COc1ccccc1)Nc1nnc(-c2ccccc2)o1	nt	10%	nt	9%	-190%	-1.3%	-3%	0%
Cc1ccc(N(Cc2cc3ccccc3[nH]c2=O)S(C)(=O)=O)cc1	-18%[46.1 µM]	0%	1%[46.1 µM]	-16%	nt	nt	nt	0%
CC(C)CN(C(=O)CN1CCN(c2cccc(Cl)c2)CC1)c1c(N)n(CC(C)C)c(=O)[nH]c1=O	16%	16%	25%[46.1 µM]	-16%	nt	nt	nt	1%
COC(=O)C1CCN(C(=O)COC(=O)CC(NC(C)=O)c2ccccc2)CC1 (stereo unspecified)	-1%	26%	?	12%	-6%	7.8%	-6%	2%
Cn1c2[n+](c3ccc(Cl)cc3c1=O)Cc1ccccc1-2	?	14%	7%	1%	-1%	nt	nt	-4%
O=C(/C=C/c1ccc([N+](=O)[O-])cc1)NCCc1ccccc1	nt	-8%	nt	20%	-2%	nt	nt	1%
O=C(CSc1nnnn1-c1ccc2c(c1)OCCO2)N1CCN(C(=O)c2ccco2)CC1	-27%	-6%	17%[46.1 µM]	-19%	1%	nt	nt	-1%
COc1cc(CN(C(=O)COc2ccc(C)c(C)c2)c2ccccn2)cc(OC)c1OC	-24%[46.1 µM]	nt	-2%[46.1 µM]	?	nt	-3.2%	?	nt
Cc1ccc(C2C(=O)N(C3CCC(C)CC3)CC(=O)N2C2CC2)cc1 (stereo unspecified)	-1%	7%	12%	-7%	2%	3.5%	5%	-3%
Cc1c(NC(=S)NC(NC(=O)CC(C)C)C(Cl)(Cl)Cl)c(=O)n(-c2ccccc2)n1C (stereo unspecified)	0%	nt	2%	-15%	11%	4.0%	-1%	4%
CN(CC(=O)O)S(=O)(=O)c1ccc(F)cc1	4%	-8%	14%	nt	14%	1.3%	17%	26%
CCN(CC)S(=O)(=O)c1cccc(-c2nnc(SC(C)C#N)n2Cc2ccccc2)c1 (stereo unspecified)	-8%	2%	?	nt	-3%	3.2%	?	0%
CC1(C)Oc2ccc(C(=O)N3CCc4ccccc43)cc2N(CC(=O)N2CCCC2)C1=O	-14%	6%	-14%[46.1 µM]	-3%	-4%	-0.9%	18%	5%
O=C(c1cccs1)n1nc(-c2cccnc2)nc1NCc1ccco1	-7%	1%	6%[46.1 µM]	-8%	-3%	nt	nt	0%
Cc1cc(C)cc(NC(=O)CCc2c(C)nc3c4cccnc4nn3c2C)c1	-7%[46.1 µM]	nt	16%[46.1 µM]	-14%	nt	-1.1%	-6%	nt
O=C(CCn1c(=O)oc2ccccc21)Nc1ccc2c(c1)OCCO2	nt	-8%	nt	43%[activator]	3%	nt	nt	-1%
Cc1noc2ncnc(N3CCCCC3)c12	nt	-5%	nt	-37%	-3%	nt	nt	-1%
Cc1nc2ccc(NC3=NCCCCC3)cc2s1	?	7%	-3%	7%	-6%	-0.6%	-1%	2%
CS(=O)(=O)c1ccccc1-c1nnc(NC(=O)c2ccc3ncsc3c2)o1	-12%	12%	-11%[46.1 µM]	-7%	nt	nt	nt	14%
CC(N)C(=O)c1ccco1 (stereo unspecified)	0%	10%	27%	-18%	-1%	-0.6%	10%	8%
CCCCOc1ccc(C2C(=O)N(C3CCCCC3)CC(=O)N2CC2CCCO2)cc1 (stereo unspecified)	2%	1%	?	19%	4%	-1.6%	?	14%
CC(C)[C@H](N)C(=O)N1CCC(C(=O)N[C@@H](Cc2ccccc2)C(=O)NCc2ccc(F)cc2)CC1	nt	2%	nt	-5%	0%	nt	nt	?
COc1ccc(CCC(=O)Nc2nc3ccccc3[nH]2)cc1	?	-15%	7%	44%[activator]	-3%	-0.7%	-8%	-4%
COc1cc(C(=O)Nc2cnc(NC(=O)C(C)C)cc2C)cc(OC)c1OC	-5%	-14%	-4%	9%	-7%	4.5%	8%	11%
O=C(CSc1n[nH]c(-c2ccccc2Br)n1)NC(=O)NCc1ccco1	?	-11%	-1%	7%	3%	5.0%	3%	-2%
CC(CN(C)Cc1ccccc1)OC(=O)C1COc2ccccc2O1 (stereo unspecified)	nt	-2%	-3%	0%	-27%	5.7%	-20%	5%
Cc1c(Cc2ccccc2)c(=O)oc2c(C)c(OCc3nn[nH]n3)ccc12	5%	-1%	5%	3%	-15%	-27%	?	-4%
Cc1cccc(C(=O)Nc2ccc(NC(=O)CN3CCOCC3)cc2)c1	1%[46.1 µM]	-8%	?	5%	6%	nt	nt	-1%
Cn1c2ccccc2c2nnc(SCC(=O)Nc3ccccc3F)nc21	nt	-2%	nt	1%	7%	nt	nt	-9%
Cc1nnc(SCC(=O)NCc2ccc3c(c2)OCO3)s1	-27%[14.3 µM]	3%	4%	2%	3%	-9.0%	-1%	0%
COc1cc(/C=C2/C(=O)N(C)C(=S)N2C)ccc1OCc1cccc(F)c1	-7%[46.1 µM]	4%	7%[46.1 µM]	-1%	9%	nt	nt	-4%
Cc1cc(-c2nc3ncccc3o2)ccc1NC(=O)c1ccccc1Br	?	nt	?	42%[activator]	nt	-11%	?	nt
Cc1ccc(OCC(=O)NC(=S)Nc2ccc(Br)cn2)cc1	nt	-13%	nt	3%	2%	nt	nt	3%
CC(C)c1ccc(NC(=O)CCNS(=O)(=O)c2cccc3nonc23)cc1	-19%	12%	-16%&-16%	-11%	-2%	-3.3%	8%	2%
O=C1/C(=C\c2cccnc2)Sc2ccccc21	?	?	26%	15%	-28%	-4.3%	-4%	-43%
